Compound activity as filed in PubChem BioAssay.
HCMV NEC inh: inhibitors of HCMV UL50-UL53 interaction, biochemical, HTRF; inhibition, % (no concentration beside the values); AID 1918969, 2023; 190,000 compounds, 0.15% hits; HCMV UL50-UL53 nuclear egress complex (human cytomegalovirus); normalized percent inhibition;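 active = both replicates at 50% or more, plus weaker picks with an unusually low signal ratio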;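 also: stock transfer was 100 nL into about 20 µL; 0% = negative control wells and 100% = wells with untagged competitor protein; inactives centre near -12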
GIV Gai3 FP: inhibitors of GIV peptide binding to Galpha-i3, primary screen, biochemical, fluorescence polarization, FITC-GIV GBA peptide, rat Galphai3; percent of control (FP), % (no concentration beside the values); 90 min; hits give low values; scaled: aluminum fluoride 0%, vehicle 100%; AID 1224905, 2016; Guanine nucleotide-binding protein G(i) subunit alpha-3 (Rattus norvegicus), P08753; 210,000 compounds, 0.42% hits;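 active = replicate mean at 85% of control or lower, very high polarization wells dropped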;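 also: wells of about 15 µL received 100 nL stock; the first replicate is given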
Target sequence (P08753 whole entry, looked up): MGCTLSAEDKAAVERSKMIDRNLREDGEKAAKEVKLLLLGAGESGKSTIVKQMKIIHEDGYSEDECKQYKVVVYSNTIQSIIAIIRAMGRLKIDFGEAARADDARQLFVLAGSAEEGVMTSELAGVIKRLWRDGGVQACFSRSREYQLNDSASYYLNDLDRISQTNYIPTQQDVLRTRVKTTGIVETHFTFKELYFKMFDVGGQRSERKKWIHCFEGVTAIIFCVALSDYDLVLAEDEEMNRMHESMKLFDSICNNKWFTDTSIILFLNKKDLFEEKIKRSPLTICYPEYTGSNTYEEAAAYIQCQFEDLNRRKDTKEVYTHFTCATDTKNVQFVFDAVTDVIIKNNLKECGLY
Sa growth 42C: S. aureus growth inhibition at 42 and 30 °C, primary screen, LtaS inhibitor project, RN4220, two temperatures; OD600, 20 h, 42 °C; hits give low values; relative growth, % (no concentration beside the values); 170,000 compounds, 0.53% hits; AID 720641, 2013;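 active = growth at 42 °C up to 50% and 20 or more points under that at 30 °C, or under 10% at both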;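 also: 300 nL library stock went into each well; scaled to the means of positive and negative controls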
Sa growth 42C second temp: further read-out of Sa growth 42C, marked with its call; relative growth, %; measured here: growth at 30 °C;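 optical density after 20 h as mean of two plates; 100% = untreated growth and lower means inhibition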
Active calls of the source: *; . = no result given; & = joins results of further samples. Hits appear at their usual frequency. Share with any hit: about 0.79%.

Every second line gives: HCMV NEC inh	GIV Gai3 FP	Sa growth 42C	Sa growth 42C second temp
O=C1NC(c2ccccc2)C(C(=O)c2ccccc2)C(O)(C(F)(F)F)N1 (stereo unspecified)
    -31	.	103	83
O=C1/C(=C/c2ccc(N3CCOCC3)cc2)Cc2ccccc21
    .	-75*	90	97
O=C1CSCC(=O)N1c1ccc2c(c1)OCO2
    -6	105	104	97
CCc1ccccc1NC(=O)Cn1c(=O)c2cccn2c2ccc(F)cc21
    -4	99	84	108
CC(C)Sc1nc(-c2ccccc2)cc(=O)[nH]1
    6	111	110	103
Cc1nnc2sc(-c3cc(CC(C)C)[nH]n3)nn12
    -20	104	.	.
N#CCn1c(CSc2ccc3c(c2)OCCO3)nc2ccccc2c1=O
    -30	.	80	80
O=C(c1nc(-c2cccnc2)no1)N1CCOCC1
    .	103	75	87
CC1CC(=O)Nc2ccccc2N1C=O (stereo unspecified)
    -6	.	122	90
O=c1cc(CO)oc(C(Nc2cccc(C(F)(F)F)c2)c2ccccn2)c1O (stereo unspecified)
    -36	101	81	85
Cc1ccc(-c2nc3nc(C)c(CC(=O)NC(C)C)c(C)n3n2)cc1
    -20	101	.	.
O=C(/C=C\Nc1ccccn1)c1ccc(Cl)cc1
    -11	109	98	110
CC(C)(C)C(=O)COC(=O)c1cc(=O)c2ccccc2o1
    -20	.	73	89
Cc1oc2c(CN(C)C)c(O)ccc2c(=O)c1Oc1ccc2ccccc2c1
    -24	101	89	102
N#CCc1nn2c(C(F)(F)F)cc(C(F)(F)F)nc2c1C#N
    -19	113	.	.
O=C(NCc1ccccn1)c1cccc(C(F)(F)F)c1
    -3	106	108	97
O=C(Nc1c2c(nc3ccccc13)CCCC2)c1ccccc1Cl
    .	104	113	104
CCN(Cc1cc(OC)cc(OC)c1)C(=O)c1c(C(F)(F)F)ccnc1OC
    0	106	114	96
O=S1(=O)CCCCN1c1ccc(S(=O)(=O)N2CCN(c3ccccc3F)CC2)cc1
    -15	104	.	.
CCN=c1scc(-c2ccc3c(c2)NC(=O)CO3)n1/N=C/c1cccs1
    3	.	95	90
CNCc1ccc(-c2cccc(C(F)(F)F)c2)o1
    3	106	.	.
Cc1ccc(-c2cc(=O)c3ccccc3o2)cc1
    45	98	83	71
O=C(O)c1cccc(N2C(=O)c3ccc4c5c(ccc(c35)C2=O)C(=O)N(c2cccc(C(=O)O)c2)C4=O)c1
    -43	105	.	.
COc1ccc(OCC(O)Cn2c(C(C)C)nc3ccccc32)cc1 (stereo unspecified)
    -4	104	90	78
Cn1cc(Br)c(-c2cccc(NC(=O)c3ccccc3Cl)c2)n1
    -5	97	114	93
Cc1c(C)c(C)c(CSC(=S)N(C)C)c(C)c1C
    -23	99	99	91
COc1ccccc1C(=O)Nc1ccccc1C(=O)OCc1cc(=O)n2ccsc2n1
    .	104	99	92
CCOC(=O)Nc1cc(C(=O)OC)cc(C(=O)OC)c1
    -5	.	75	88
CCCN1CCC(NC(=O)Nc2cc(Cl)ccc2OC)CC1
    -12	103	99	88
CCc1ccc(N(CC(=O)NC2CCCC2)S(=O)(=O)c2c(C)noc2C)cc1
    .	101	96	92
O=C1NC(c2cccs2)Nc2c1sc(=S)n2-c1ccccc1 (stereo unspecified)
    -62	.	164	54
Fc1ccc(C2=CSC3=NCCCN23)cc1F
    -8	100	97	93
CCOc1ccc(CNc2ccc(N3CCCC3)cc2)cc1
    .	102	69	81
COc1cc(Cl)c(NC(=O)CCS(=O)(=O)c2cc3c(cc2Cl)NC(=O)CO3)c(OC)c1
    .	107	117	86
Cc1onc(-c2ccccc2)c1C(=O)OCc1ccc(Cl)cc1
    -26	.	81	90
OC1(c2ccccc2)CCN(Cc2ccccc2)[C@@H]2CCCC[C@@H]21 (stereo partly specified)
    27	.	94	89
CC(=O)N1CCc2c(sc3c2c(=O)n(-c2ccccc2)c(=O)n3CC(=O)c2ccccc2)C1
    -5	98	106	87
CCCc1cc(O)c2c(C)cc(=O)oc2c1
    -15	.	5.2*	8.9*
CC(C)CCNC(=O)c1nn(C)c2c1CSc1ccccc1-2
    -20	99	84	92
CCN(c1ccccc1)S(=O)(=O)c1ccc(-n2cnc3cc(C)c(C)cc32)nc1
    -9	.	87	93
S=C(Nc1cccc(Cl)c1)Nc1cccc(Cl)c1
    -13	108	0.0*	-0.1*
CC(C)c1ccc(NC(=O)CSC2=Nc3ccccc3N=C(c3ccccn3)C2)cc1
    -7	102	.	.
O=C1/C(=C/c2cn[nH]c2-c2ccc(F)cc2)CS/C1=C\c1cn[nH]c1-c1ccc(F)cc1
    .	190	90	68
COc1ccc(Cn2ccc3nc(C)c(C(=O)NCc4ccccc4)cc3c2=O)cc1
    15	103	124	94
COC(=O)CSc1nnc(-c2cccc(O)c2)o1
    .	100	106	96
Cc1ccc(-c2ccnc3c2c(=O)[nH]c(=O)n3C)cc1
    -16	99	.	.
CCOC(=O)c1ccc(NC(=O)Cn2cc(C(=O)CC)c3ccccc32)cc1
    .	102	115	64
COc1cc(C2C(=O)N(C3CCC(C)CC3)CC(=O)N2CCc2ccc(Cl)cc2)ccc1OC(C)C (stereo unspecified)
    .	103	91	86
COc1ccccc1C(CCN)c1ccco1 (stereo unspecified)
    1	101	116	92
CCCc1c(O)c2ccccc2[nH]c1=O
    -1	.	106	91
C=CCn1c(SCCC(=O)O)nnc1-c1cccs1
    1	101	104	80
CCOC(=O)N1CCN(C(=O)c2ccc(CS(=O)(=O)c3ccccc3OC)o2)CC1
    4	106	86	96
Cc1ccc(CNC(=S)NCCO)cc1
    -11	98	97	90
CCc1ccc(NC(=O)Cn2nnc(C(=O)NCc3ccco3)c2N)cc1
    -16	106	104	87
CCc1noc2ncnc(Nc3ccc(F)c(Cl)c3)c12
    -25	99	.	.
Cc1cccc(Cl)c1OCCN1CCN(C)CC1
    -8	.	97	89
O=C(NC1CCCCC1)N1CCn2cccc2C1Cc1ccccc1 (stereo unspecified)
    6	112	112	88
CC1(C)NC(=O)N(c2ccc([N+](=O)[O-])c(C(F)(F)F)c2)C1=O
    -114&-55&-71&-37	102	97	85
O=C(NCCc1ccc(Cl)cc1)c1ccc2c(c1)ncn2C1CCCC1
    .	101	107	85
O=C(Nc1ccccc1)Nc1ccc(Cl)cc1SCc1ccccc1
    10	100	98	97

Carrying on:
Every second line gives: HCMV NEC inh	GIV Gai3 FP	Sa growth 42C	Sa growth 42C second temp
Cc1c(C(=O)Nc2ccccc2Cl)oc2ccc(S(=O)(=O)N3CCCCC3)cc12
    .	105	112	85
COc1ccc(C2CC(c3ccc(Cl)cc3)=NN2S(=O)(=O)c2ccccc2)cc1 (stereo unspecified)
    -3	103	.	.
Cc1ccc(S(=O)(=O)C2(C(=O)NC3CCCCC3)CC2)cc1
    .	100	75	95
O=S(=O)(Nc1ccc(N2CCCCC2)cc1)c1ccccc1
    -15	101	100	88
CN(C)c1ccc(/C=N/N=C(N)N)cc1
    -37	103	99	94
CN(C)c1ccc(C(=O)N2CCN(c3ccccn3)CC2)cc1S(=O)(=O)N(C)C
    -4	103	.	.
CCOc1ccc(CCNC(=O)c2cccnc2N2CCCC2)cc1OCC
    10	101	101	91
O=C(COC(=O)c1c[nH]c(=O)[nH]c1=O)NCc1ccccc1
    -14	.	81	96
CN(CCCNC(=O)c1cccc(NC(=O)c2nnc(COc3ccccc3)s2)c1)c1ccccc1
    -11	104	.	.
S=c1nn[nH]n1C1CCCC1
    -15	.	96	89
Cc1[nH]c2ccccc2c1C(=O)CSc1ccccn1
    0	.	95	105
COc1ccc(C)cc1NC(=O)N1CCC(C)CC1
    25	100	99	102
COC(=O)c1ccc(NC(=O)C(=O)NCC(c2cccnc2)N2CCN(c3ccccc3)CC2)cc1 (stereo unspecified)
    .	108	88	102
COc1ccc(/C=C2/NC(=O)N(Cc3ccccc3F)C2=O)cc1
    -13	107	100	98
COc1ccc(CCNc2nc(-c3ccc(C)cc3)cc(C(F)F)n2)cc1OC
    12	100	85	100
Cc1ccc(-c2cc3c(n2-c2ccccc2F)CC(C)(C)CC3=O)cc1
    -8	100	106	95
CCC1CCCCN1C(=O)CSc1nnc(-c2cccs2)o1 (stereo unspecified)
    -8	103	92	74
Cc1cc(N2CCC(N(C)C3CCCC3)CC2)nc2cc(O)ccc12
    0	99	80	86
C=C1N(c2cccc(Cl)c2)C(=O)OC1(C)C
    -14	95	99	86
CCOC(=O)c1cc2c(C)n(-c3ccccc3)c(C)c2cc(C(=O)OCC)c1=O
    .	101	92	68
Cc1nn(C(=O)CCCC(=O)O)c2ccccc12
    9	101	98	99
Cc1nc(-c2ccccc2)sc1-c1nnnn1-c1ccc(Cl)cc1
    0	101	97	92
CC(C)CCN(Cc1ccco1)C(=O)c1oc(=O)c2ccccc2c1-c1ccccc1
    .	97	84	76
CC(C)Oc1ccc(C(=O)N(Cc2ccco2)Cc2cccs2)cc1
    -24	102	93	58
CC1=C(/C=C/C(C)=C/C=C/C(C)=C/C=C/C=C(C)/C=C/C=C(C)/C=C/C2=C(C)CCCC2(C)C)C(C)(C)CCC1
    -7	.	97	87
Cc1cc(N2CCC(NC(=O)Nc3ccc(F)cc3)CC2)n2ncnc2n1
    2	104	.	.
COc1ccc(NCC(=O)n2c3ccccc3c3ccccc32)cc1
    .	103	94	91
CCCCNc1nc2cccnc2s1
    -4	107	110	83
O=C(CSc1nc2ccccc2s1)c1ccc2c(c1)OCO2
    -9	.	99	96
CNC(=O)N(O)c1ccccc1
    -37	107	99	94
Nc1cccc2c(S(=O)(=O)N3CCOCC3)cccc12
    -43	103	87	82
S=C(NCc1ccco1)Nc1nn(Cc2ccc(Cl)cc2Cl)cc1Cl
    8	112	99	96
O=C(COC(=O)Cc1c[nH]c2ccccc12)Nc1ccc(Cl)cc1F
    -16	.	106	85
COc1c(C)cccc1C(=O)Nc1ccc(Cl)c(-c2nc3cc(C)ccc3o2)c1
    2	107	141	92
COC(=O)c1ccc(CN(c2ccccc2OC)S(=O)(=O)c2cccs2)o1
    4	.	105	100
COC(=O)CCCN
    -12	.	101	95
Fc1ccccc1-c1nc(NCCN2CCOCC2)c2ccccc2n1
    -10	102	.	.
COc1cccc(COC(=O)c2n[nH]c3ccccc23)c1
    -27	.	108	98
CN(C(=O)COC(=O)c1ccc(Cl)cc1O)C1CCS(=O)(=O)C1 (stereo unspecified)
    -9	.	99	90
Cc1ccc(C(=O)Nc2ccc3c(c2)N(C)C(=O)c2ccccc2S3)cc1
    .	109	137	105
Cc1c(N2CCC(C(=O)N3CCc4ccccc4C3)CC2)c(=O)n(C)c(=O)n1-c1ccccc1
    -16	120	.	.
Cc1ccc(CNc2oc(-c3ccc(COc4ccc(Cl)cc4)o3)nc2C#N)cc1
    -11	99	104	89
CC(C)(C)c1cc(C(F)(F)F)nc(SCCCNC(=O)c2ccco2)n1
    -37	104	99	90
CSc1nnc(-c2ccc(S(=O)(=O)N3CCCCC3)s2)n1C
    -4	105	98	88
